Six1-Eya2 blk: Six1/Eya2 interaction inhibition; Q15475+O00167; AlphaScreen GST-Six1/His-Eya2 binding, biochemical; active compounds read low; control for the full effect not named in the record; activity change, % (no concentration beside the values); hit rate 0.56% among 360,000; AID 651725; in the data active = activity change below about -65%; inconclusive = about -30% to -65%; inactive = above about -30%; further: on the % scale 0 is the no-effect control and ±100 the full control effect
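AlphaScreen with GST-Six1 and His-Eya2 (5X mix: 250 nM and 500 nM), glutathione donor and nickel acceptor beads; buffer 50 mM Tris pH 8.0, 300 mM NaCl, 1 mM TCEP; 1 h at 37 C in the dark.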
D2 PAM: potentiates the human D2 dopamine receptor allosterically; hit rate 0.23% among 360,000; DiscoveRx D2 beta-arrestin cells, luminescence, 90 min; 100% = 57 uM dopamine signal; AID 624464; potentiation, % (no concentration beside the values); P14416; active = potentiation of 50% or more; inconclusive = 30% to 50%; inactive = 30% or less;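 further: compound concentration not given in the record; tested on top of an EC20 dose of dopamine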
Target sequence (P14416 whole entry, looked up): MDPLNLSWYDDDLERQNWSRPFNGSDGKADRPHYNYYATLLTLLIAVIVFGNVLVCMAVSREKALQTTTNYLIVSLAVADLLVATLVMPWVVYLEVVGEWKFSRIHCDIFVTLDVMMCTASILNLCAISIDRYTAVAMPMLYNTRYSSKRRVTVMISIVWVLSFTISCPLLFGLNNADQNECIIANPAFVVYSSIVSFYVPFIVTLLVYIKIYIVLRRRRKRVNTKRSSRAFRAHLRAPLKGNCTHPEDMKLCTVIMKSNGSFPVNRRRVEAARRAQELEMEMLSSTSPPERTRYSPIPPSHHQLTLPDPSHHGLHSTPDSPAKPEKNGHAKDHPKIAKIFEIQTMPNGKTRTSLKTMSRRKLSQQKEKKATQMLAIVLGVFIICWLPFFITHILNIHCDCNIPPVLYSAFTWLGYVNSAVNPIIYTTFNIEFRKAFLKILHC
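D2 cells co-treated with compound plus 50 nM dopamine (EC20) for 90 min at 37 deg C to detect potentiation. Beta-arrestin recruitment was read as enzyme-fragment luminescence after 1 h at ambient temperature. Full response was set by 57 uM dopamine.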
CtBP-E1A blk: blocks the CtBP interaction with E1A; AID 651724; AlphaScreen GST-E1A/His-CtBP binding, 1536-well; active compounds read low; control for the full effect not named in the record; hit rate 0.49% among 340,000; activity change, % (no concentration beside the values); in the data active means activity change below about -65%; inconclusive means about -30% to -65%; inactive means above about -30%; further: on the % scale 0 is the no-effect control and ±100 the full control effect
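GST-E1A and His-tagged CtBP (125 nM each as 5X stock) were preincubated with pin-transferred compound for 2 h at 37 °C in the dark, then glutathione donor and nickel acceptor beads were added for 1 h before AlphaScreen reading.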
PINK1 expr mod: changes PINK1 expression | hit rate 0.2% among 410,000 | AID 624263 | PINK1 immunofluorescence, high-content cytometry, 24 h | Potency, µM (highest dose often 76.6 µM), without a hit: top-dose activation (PINK1 increase), usual class: activators; active = well fitted activation curve with a large enough effect; inconclusive = small, poorly fitted or top-dose-only effect; inactive = flat fitted curve, though single readings scatter; cell line not stated here;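 further: potency means the concentration at half of the fitted maximal effect; % of control where 0% means no effect; nearly all actives have a fitted effect of over 65% in size; a mitochondrial uncoupler was the plate control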
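A stable cell line was treated with compounds at 5 concentrations for 24 hours, with CCCP as control. PINK1 levels and mitochondrial localization were measured by immunofluorescence with mitochondrial, cell and nuclear markers after fixation, read by laser-scanning cytometry.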
D2 ag: agonists of human D2 dopamine receptor (beta-arrestin); P14416; AID 624465; DiscoveRx PathHunter D2 beta-arrestin, luminescence, 90 min; 100% = 57 uM dopamine signal; hit rate 0.084% among 360,000; activation, % (test concentration not listed); in the data active = activation above about 40%; inconclusive = about 15% to 40%; inactive = below about 15%; further: compound concentration not given in the record; the text of the record calls up to 30% inactive
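Agonist mode: compounds alone added to overnight-plated D2 PathHunter cells for 90 min at 37 C, with 57 uM final dopamine (EC100) defining full response. Beta-arrestin recruitment detected by chemiluminescent reagent, read after 1 h at ambient temperature.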
TRPML1 agonist: human mucolipin-1 channel agonism. TRPML1-expressing cells, Ca2+ dye fluorescence, FDSS; host cell line not named in the record; reference of the full effect not given here. AID 624414. activation, % (concentration not given with the values). hit rate 0.12% among 410,000; in the data active = activation above about 50%; inconclusive = about 30% to 50%; inactive = below about 30%; further: 0% is about no effect; the text of the record puts the active cut at 80%
Target sequence (Q9GZU1 whole entry, looked up): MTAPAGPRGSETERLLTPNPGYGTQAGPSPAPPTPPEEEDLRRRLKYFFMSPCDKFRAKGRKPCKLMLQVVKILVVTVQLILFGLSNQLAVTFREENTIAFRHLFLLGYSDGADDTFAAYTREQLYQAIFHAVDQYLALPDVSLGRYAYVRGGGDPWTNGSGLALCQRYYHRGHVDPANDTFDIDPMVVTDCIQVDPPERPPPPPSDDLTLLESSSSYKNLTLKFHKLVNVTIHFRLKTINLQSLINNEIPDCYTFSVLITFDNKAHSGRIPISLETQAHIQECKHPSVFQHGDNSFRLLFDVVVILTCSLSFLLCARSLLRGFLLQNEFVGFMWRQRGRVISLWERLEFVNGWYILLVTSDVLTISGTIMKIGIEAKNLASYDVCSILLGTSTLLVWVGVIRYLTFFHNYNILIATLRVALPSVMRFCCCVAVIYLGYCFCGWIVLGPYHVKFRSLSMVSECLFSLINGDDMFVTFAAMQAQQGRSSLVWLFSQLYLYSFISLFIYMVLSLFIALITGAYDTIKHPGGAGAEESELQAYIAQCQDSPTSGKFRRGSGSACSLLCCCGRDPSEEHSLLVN
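Tetracycline-induced TRPML1-DL cells are seeded and incubated overnight before loading with a no-wash Ca2+ dye and quencher. Agonist activity is taken from the 110 s fluorescence read following compound pin-transfer on an FDSS, before EC80 54-4 challenge.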
Numbers without * were called inactive; [ ] = another dose, or the depositor's remark.

How did CCOC(=O)C1CCN(S(=O)(=O)c2ccc3c(c2)CC(=O)N3C)CC1 do in these assays?
Six1-Eya2 blk: 0.0; D2 PAM: -22.7; CtBP-E1A blk: 0.1; PINK1 expr mod: 0.7%; D2 ag: -7.0; TRPML1 agonist: 1.2

How did CCOc1ccc(NC(=O)c2nsc(Cl)c2Cl)cc1 do in these assays?
Six1-Eya2 blk: 2.1; D2 PAM: -10.7; CtBP-E1A blk: 3.2; PINK1 expr mod: 1.1%; D2 ag: -3.3; TRPML1 agonist: -0.5

How did O=C(c1ccc2nc(N3CCCCC3)sc2c1)N1CCN(Cc2ccc3c(c2)OCO3)CC1 do in these assays?
Six1-Eya2 blk: -10.4; D2 PAM: -0.8; CtBP-E1A blk: -3.0; PINK1 expr mod: -1.3%; D2 ag: -4.6; TRPML1 agonist: -0.5

How did O=C1c2ccccc2-c2nnc(-c3ccccc3)cc21 do in these assays?
Six1-Eya2 blk: 6.4; D2 PAM: -65.6; CtBP-E1A blk: 13.2; PINK1 expr mod: 2.9%; D2 ag: -18.3; TRPML1 agonist: -0.2

Results for CCC(Oc1ccccc1C)C(=O)Nc1ccc(S(=O)(=O)Nc2cc(C)on2)cc1 (configuration not stated) ?
Six1-Eya2 blk: 0.0; D2 PAM: 0.0; CtBP-E1A blk: -2.6; PINK1 expr mod: 1.0%; D2 ag: 3.3; TRPML1 agonist: 1.3

What do the screens show for `O=c1[nH]cnc2c1C(c1ccccc1[N+](=O)[O-])c1c(nc[nH]c1=O)O2`?
Six1-Eya2 blk: inconclusive; D2 PAM: -15.6; CtBP-E1A blk: inconclusive; PINK1 expr mod: 0.0%; D2 ag: -4.4; TRPML1 agonist: 0.0

Results for CCOc1ccccc1CNC(=O)C1CCCN(c2nn3c(=O)cc(C)nc3s2)C1 (configuration not stated) ?
Six1-Eya2 blk: -1.9; D2 PAM: -6.7; CtBP-E1A blk: -0.8; PINK1 expr mod: 0.8%; D2 ag: 2.7; TRPML1 agonist: -0.7

How did O=C(NCCN1C(=O)S/C(=C/c2cccnc2)C1=O)c1cccs1 do in these assays?
Six1-Eya2 blk: 1.5; D2 PAM: 0.3; CtBP-E1A blk: 4.8; PINK1 expr mod: 5.6%; D2 ag: 2.5; TRPML1 agonist: -0.2

Results for NC(=O)CN1C(=O)C(O)(CC(=O)/C=C\C=C\c2ccccc2)c2ccccc21 (configuration not stated) ?
Six1-Eya2 blk: 1.7; D2 PAM: 19.6; CtBP-E1A blk: 9.0; PINK1 expr mod: 5.4%; D2 ag: 1.1; TRPML1 agonist: 1.0

What do the screens show for `Cc1cccc(NC(=O)c2cc(-c3cc(C)cc(C)c3O)n[nH]2)c1`?
Six1-Eya2 blk: -9.9; D2 PAM: -8.6; CtBP-E1A blk: -3.8; PINK1 expr mod: 2.7%; D2 ag: -1.3

How did CC(=O)Nc1ccc(C(=O)CSc2nccc(=O)[nH]2)cc1 do in these assays?
Six1-Eya2 blk: 11.2; D2 PAM: -4.6; CtBP-E1A blk: -0.7; PINK1 expr mod: -0.9%; D2 ag: -1.6; TRPML1 agonist: 0.2

What do the screens show for `O=C(O)c1cc(-c2cc3ccccc3o2)nn1-c1ccccc1`?
Six1-Eya2 blk: 0.4; D2 PAM: -5.4; CtBP-E1A blk: 3.2; PINK1 expr mod: -1.6%; D2 ag: -1.6; TRPML1 agonist: 0.8

How did O=C(Oc1cccnc1)c1cc2ccccc2oc1=O do in these assays?
Six1-Eya2 blk: -76.0*; D2 PAM: -38.7; CtBP-E1A blk: inconclusive; PINK1 expr mod: 2.6%; D2 ag: -8.5; TRPML1 agonist: -0.7

Results for CCOC(=O)c1cnc[nH]c1=O ?
Six1-Eya2 blk: 0.8; D2 PAM: -1.4; CtBP-E1A blk: -5.9; PINK1 expr mod: 3.9%; D2 ag: 1.2; TRPML1 agonist: -0.1

How did CC1CCc2c(nc3ncnn3c2NCCN(C)C)C1 (configuration not stated) do in these assays?
Six1-Eya2 blk: -3.8; D2 PAM: -9.7; CtBP-E1A blk: -20.2; PINK1 expr mod: -0.8%; D2 ag: -2.2; TRPML1 agonist: -0.8

Results for COC(=O)c1sccc1NC(=S)N1CC(C)CC(C)C1 (configuration not stated) ?
Six1-Eya2 blk: 10.6; D2 PAM: -2.3; CtBP-E1A blk: 8.1; PINK1 expr mod: 1.3%; D2 ag: -1.2; TRPML1 agonist: 3.4

What do the screens show for `C=CCNc1ncnc2c1ncn2[C@H]1CN(Cc2ccccc2)C[C@@H](CO)O1`?
Six1-Eya2 blk: 1.1; D2 PAM: -6.4; CtBP-E1A blk: 3.5; PINK1 expr mod: 0.9%; D2 ag: -1.9; TRPML1 agonist: -0.4

What do the screens show for `CC1(C)CC(NCc2cccc([N+](=O)[O-])c2)CC(C)(C)N1`?
Six1-Eya2 blk: -2.3; D2 PAM: -2.6; CtBP-E1A blk: 3.3; PINK1 expr mod: -0.4%; D2 ag: 0.0; TRPML1 agonist: -0.8

How did COc1ccc(CN(C)C(=O)c2ccc(NS(=O)(=O)c3ccc(F)cc3)cc2)c(OC)c1OC do in these assays?
Six1-Eya2 blk: -10.1; D2 PAM: -10.9; CtBP-E1A blk: 5.5; PINK1 expr mod: 0.8%; D2 ag: -1.9; TRPML1 agonist: -0.4

What do the screens show for `CCN(c1ccc(OC)cc1)S(=O)(=O)c1nnc(NC(=O)C2CCCCC2)s1`?
Six1-Eya2 blk: -0.4; D2 PAM: -0.7; CtBP-E1A blk: 3.7; PINK1 expr mod: 4.0%; D2 ag: -1.0; TRPML1 agonist: -0.7

How did Cc1cccc(-n2c(SCC(=O)Nc3ccc4c(c3)OCO4)nnc2-c2ccoc2C)c1 do in these assays?
Six1-Eya2 blk: 0.8; D2 PAM: -20.8; CtBP-E1A blk: -4.6; PINK1 expr mod: 7.7%; D2 ag: -2.7; TRPML1 agonist: 1.3

What do the screens show for `Cc1cccc(C(=O)OCC(=O)c2ccc3c(c2)NC(=O)CO3)c1`?
Six1-Eya2 blk: -3.0; D2 PAM: 8.2; CtBP-E1A blk: 2.6; PINK1 expr mod: 2.3%; D2 ag: -2.2; TRPML1 agonist: 0.0

How did O=C(O)C1CCCCC1C(=O)Nc1ccccc1Cl (configuration not stated) do in these assays?
Six1-Eya2 blk: -0.7; D2 PAM: 9.6; CtBP-E1A blk: 2.6; PINK1 expr mod: 0.0%; D2 ag: -1.6; TRPML1 agonist: -0.8

What do the screens show for `N#C/C(=C\c1ccc[nH]1)C(=O)Nc1ccccc1F`?
Six1-Eya2 blk: 0.8; D2 PAM: -22.1; CtBP-E1A blk: -2.2; PINK1 expr mod: -0.7%; D2 ag: -2.1; TRPML1 agonist: -0.6

Reprinted from the part before: 2 compounds, then new ones.
How did O=C(O)C1CCCCC1C(=O)Nc1ccccc1Cl (configuration not stated) do in these assays?
Six1-Eya2 blk: -0.7; D2 PAM: 9.6; CtBP-E1A blk: 2.6; PINK1 expr mod: 0.0%; D2 ag: -1.6; TRPML1 agonist: -0.8

What do the screens show for `N#C/C(=C\c1ccc[nH]1)C(=O)Nc1ccccc1F`?
Six1-Eya2 blk: 0.8; D2 PAM: -22.1; CtBP-E1A blk: -2.2; PINK1 expr mod: -0.7%; D2 ag: -2.1; TRPML1 agonist: -0.6

What do the screens show for `COC(=O)c1sc2nc(CN3CCN(c4ccc(OC)cc4)CC3)[nH]c(=O)c2c1C`?
Six1-Eya2 blk: -8.8; D2 PAM: -5.8; CtBP-E1A blk: -6.4; PINK1 expr mod: inconclusive; D2 ag: -3.3; TRPML1 agonist: 1.1

How did CCOc1ccc(CN2CCN(Cc3[nH]c4ccccc4c3C)CC2CCO)cc1 (configuration not stated) do in these assays?
Six1-Eya2 blk: -20.7; D2 PAM: -1.6; CtBP-E1A blk: -19.6; PINK1 expr mod: -0.1%; D2 ag: 2.0; TRPML1 agonist: -0.2

Results for CN(c1ccc(O)cc1)c1nc(-c2ccccc2)cs1 ?
Six1-Eya2 blk: -21.5; D2 PAM: -13.9; CtBP-E1A blk: 0.0; PINK1 expr mod: 4.7%; D2 ag: 2.1; TRPML1 agonist: 1.8

Results for CCn1c(=O)cc(OCC(=O)NCCC(C)C)c2ccccc21 ?
Six1-Eya2 blk: -1.4; D2 PAM: -8.9; CtBP-E1A blk: 2.8; PINK1 expr mod: 6.5%; D2 ag: -5.6; TRPML1 agonist: 0.3

Results for COc1ccc(N2CCN(C(=O)CC34CC5CC(CC(C5)C3)C4)CC2)c([N+](=O)[O-])c1 ?
Six1-Eya2 blk: -5.7; D2 PAM: -4.0; CtBP-E1A blk: -3.5; PINK1 expr mod: 26.1%; D2 ag: -5.1; TRPML1 agonist: -1.5

What do the screens show for `Cc1ccc(OCCCC(=O)N(C)CC(=O)Nc2ccccc2Cl)cc1`?
Six1-Eya2 blk: 6.2; D2 PAM: -6.2; CtBP-E1A blk: 0.5; PINK1 expr mod: 0.2%; D2 ag: -6.1; TRPML1 agonist: 0.7

How did CC(C)COc1ccc(/C=C2/Sc3ccccc3C2=O)cc1 do in these assays?
Six1-Eya2 blk: 0.1; D2 PAM: 18.7; CtBP-E1A blk: 6.9; PINK1 expr mod: -0.3%; D2 ag: 6.8; TRPML1 agonist: 0.5

Results for COc1ccc(NC(=O)CCCc2ccc(OC)c(C)c2)cc1 ?
Six1-Eya2 blk: 1.2; D2 PAM: 8.7; CtBP-E1A blk: 12.4; PINK1 expr mod: 1.6%; D2 ag: -0.8; TRPML1 agonist: 1.0

How did O=C(CCc1nc2cccnc2n1Cc1ccccc1)NCCc1ccc(Cl)cc1 do in these assays?
Six1-Eya2 blk: -0.8; D2 PAM: 0.7; CtBP-E1A blk: 1.3; PINK1 expr mod: 0.7%; D2 ag: -0.5; TRPML1 agonist: 0.9

What do the screens show for `O=S(=O)(Cc1ccccc1)C(CCCc1ccccc1)S(=O)(=O)Cc1ccccc1`?
Six1-Eya2 blk: 5.2; D2 PAM: -13.9; CtBP-E1A blk: 9.5; PINK1 expr mod: -0.8%; D2 ag: -5.0; TRPML1 agonist: 0.3

Results for CC(=O)N1CCOc2ccc(S(=O)(=O)N3CCC(C(=O)NCc4ccc(C)cc4)CC3)cc21 ?
Six1-Eya2 blk: 1.3; D2 PAM: -10.8; CtBP-E1A blk: -7.1; PINK1 expr mod: -1.3%; D2 ag: 1.7; TRPML1 agonist: -0.5

How did Cc1ccccc1-n1c(C)n[nH]c1=S do in these assays?
Six1-Eya2 blk: -4.5; D2 PAM: -13.7; CtBP-E1A blk: -6.8; PINK1 expr mod: -0.8%[38.3 µM]; D2 ag: 1.2; TRPML1 agonist: 0.4

What do the screens show for `Cc1nn(-c2ccccc2)c(Cl)c1CN(C(=O)CCl)c1ccc(Cl)cc1`?
Six1-Eya2 blk: 1.9; D2 PAM: -9.1; CtBP-E1A blk: -0.6; PINK1 expr mod: -4.4%; D2 ag: -1.5; TRPML1 agonist: 0.6

Results for Nc1c(N(CCC2=CCCCC2)C(=O)Cc2ccc(F)cc2)c(=O)[nH]c(=O)n1Cc1ccccc1 ?
Six1-Eya2 blk: -8.3; D2 PAM: -6.9; CtBP-E1A blk: -1.0; PINK1 expr mod: 1.1%; D2 ag: -3.4; TRPML1 agonist: 20.4

Results for Cc1c(NC(=O)c2cccc(NC(=O)Cc3ccc(F)cc3)c2)c(=O)n(-c2ccccc2)n1C ?
Six1-Eya2 blk: -0.7; D2 PAM: -9.4; CtBP-E1A blk: -5.0; PINK1 expr mod: -1.8%; D2 ag: -1.3; TRPML1 agonist: 0.3

Screening data from PubChem.
